Screening results from PubChem.
Tau ThT inhib = inhibitors of human tau fibril formation, thioflavin T binding | recombinant tau K18 P301L, heparin-induced fibrillization, ThT fluorescence | Potency, µM (series often up to 57.4 µM), inactives show top-dose activity, negative = inhibition, most hits filed as inhibitors | 270,000 tested, 2.1% active | AID 1460; note: nearly all actives have a fitted effect of over 55% in size
Target sequence (P10636 561-689 P618L limits assumed): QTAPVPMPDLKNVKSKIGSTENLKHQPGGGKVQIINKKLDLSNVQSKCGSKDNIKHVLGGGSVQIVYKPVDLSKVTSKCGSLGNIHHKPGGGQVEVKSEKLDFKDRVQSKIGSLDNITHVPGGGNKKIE
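ThT emission at 510 nm, taken 1 hr after adding 30 uM dye, quantifies aggregates formed when 20 uM heparin acts on human tau K18 P301L for 6 hr at 37 C.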
L3MBTL1 block = inhibitors of human L3MBTL1; Q9Y468; AlphaScreen L3MBTL1–H3K9me1 peptide binding; Potency, µM (series often up to 57.1 µM), for inactives: top-dose activity, negative = inhibition, hits mostly inhibitors; 230,000 tested, 0.66% active; AID 485360; note: nearly all actives have a fitted effect of over 60% in size
Target sequence (Q9Y468 whole entry, looked up): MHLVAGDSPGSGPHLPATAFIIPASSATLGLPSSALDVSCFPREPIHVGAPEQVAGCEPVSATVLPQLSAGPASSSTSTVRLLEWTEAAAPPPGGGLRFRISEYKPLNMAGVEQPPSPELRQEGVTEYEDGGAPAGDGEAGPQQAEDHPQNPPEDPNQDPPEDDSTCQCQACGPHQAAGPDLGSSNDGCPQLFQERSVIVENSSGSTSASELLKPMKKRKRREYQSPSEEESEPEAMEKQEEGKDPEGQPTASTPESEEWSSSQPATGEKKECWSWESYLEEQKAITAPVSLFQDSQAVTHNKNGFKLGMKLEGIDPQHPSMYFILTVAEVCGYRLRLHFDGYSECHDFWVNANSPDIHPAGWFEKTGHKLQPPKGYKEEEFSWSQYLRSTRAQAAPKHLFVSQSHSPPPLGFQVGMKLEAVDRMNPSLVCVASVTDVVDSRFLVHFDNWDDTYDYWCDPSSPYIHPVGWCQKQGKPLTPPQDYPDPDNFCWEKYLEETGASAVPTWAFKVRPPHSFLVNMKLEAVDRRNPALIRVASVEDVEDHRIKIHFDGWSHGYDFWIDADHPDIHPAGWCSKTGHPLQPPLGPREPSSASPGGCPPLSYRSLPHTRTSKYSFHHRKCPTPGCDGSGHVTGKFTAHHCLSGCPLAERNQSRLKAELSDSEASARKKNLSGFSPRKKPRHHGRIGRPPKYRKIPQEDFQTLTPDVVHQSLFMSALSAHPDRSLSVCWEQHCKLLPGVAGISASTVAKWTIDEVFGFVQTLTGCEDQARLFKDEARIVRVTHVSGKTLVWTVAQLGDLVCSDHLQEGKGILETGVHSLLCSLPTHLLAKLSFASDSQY
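First, the protein-peptide complex forms for 30 min at room temperature (L3MBTL1 50 nM, biotinylated H3K9me1 peptide 75 nM). Next, compounds are pin-transferred and incubated 30 min. Finally, AlphaScreen beads are added and read after 30 min.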
Tau FP inhib = blocks human tau fibril formation measured by polarization | P10636 | K18 P301L tau heparin fibrillization, Alexa594 FP, 6 h | Potency, µM (titrated, usually from 57.7 µM), for inactives: at the top dose activity, negative = inhibition, most hits filed as inhibitors | 280,000 tested, 0.39% active | AID 1468; note: nearly all actives have a fitted effect of over 55% in size
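Read-out: fluorescence polarization of Alexa 594-labeled tau (0.24 uM), 555 nm excitation, 632 nm emission. Mixtures held 15 uM unlabeled K18 P301L, compound and 20 uM heparin, pH 7 acetate buffer, incubated 6 hr at 37 C.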
Tau fluor cs = counter-screen for tau fibril formation inhibitors; tau K18 P301L Alexa594 fluorescence, heparin fibrillization; Potency, µM (titrated, usually from 57.7 µM), inactives show at the top dose activity change, negative = decrease; 280,000 tested, 0.93% active; AID 1463; note: nearly all actives have a fitted effect of over 55% in size
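Human tau K18 P301L (15 uM unlabeled, 0.24 uM Alexa 594-labeled) in 100 mM sodium acetate pH 7 with 20 uM heparin, 6 hr at 37 C. ThT 30 uM added, 1 hr ambient; Alexa 594 FP and total fluorescence read at 555/632 nm.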
aGal spleen mod = alpha-galactosidase A (human) modulation | P06280 | human spleen homogenate, 4MU-alpha-Gal fluorescence, 40 min | Potency, µM (series often up to 80 µM), without a hit: at the top dose activity change, negative = inhibition, usual class: inhibitors | 240,000 tested, 0.008% active | AID 2107;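 note: 0% = enzyme with vehicle and -100% = no enzyme basal signal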
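qHTS titration in buffer at pH 5.0. Alpha-galactosidase activity in spleen homogenate was measured via 4-methylumbelliferone release from 1 mM fluorogenic substrate after 40 min at 37C and a pH 10 stop. AC50 came from Hill fits of control-normalized data.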
TRb-SRC2 inh = disrupts binding of human TR beta to SRC2; P10828; TRbeta-SRC2 peptide binding, fluorescence polarization; receptor liganded with 1 µM T3; Potency, µM (highest dose often 106 µM), for inactives: at the highest dose activity change, negative = inhibition, actives largely listed as inhibitors; 280,000 tested, 0.065% active;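 note: plate controls were bound peptide for no effect and peptide without receptor for full effect; nearly all actives have a fitted effect of over 50% in size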
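Human TRb ligand-binding domain (0.6 uM) is mixed with 20 nM Texas Red SRC2 peptide and 1 uM T3; after compound addition and 5 hr at ambient temperature, polarization is measured and normalized to unbound and bound controls.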
TR SRC2 fluor cs = Texas Red fluorescence interference in TRb-SRC2 counter-screen | AID 1479 | TRb/SRC2 Texas Red total fluorescence interference | Potency, µM (titrated, usually from 106 µM), for the others: top-dose fluorescence change, negative = quenching | 280,000 tested, 0.29% active; active = well fitted curve in either direction with a large enough effect; inconclusive = small, poorly fitted or top-dose-only effect
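Human TRβ ligand-binding domain (0.6 uM) and Texas Red SRC2 peptide (20 nM) in Tris buffer with 1 uM T3 and 5% DMSO were incubated with pinned compound for 5 hr at ambient temperature. Total fluorescence was computed as S + 2P (555/632 nm).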
Active calls of the source: *; ? = inconclusive; . = no result given; [ ] = remark or other dose. Unless noted, calls come from the whole dose curve; as a rule, active = well fitted curve in the direction sought with a large enough effect; inconclusive = small, poorly fitted or top-dose-only effect, or another doubt; inactive = no such curve, though single readings can be large; an effect the other way counts as inactive or inconclusive. Unless noted, % is set by controls: 0 for no effect and ±100 for the full control effect; potency is the fitted concentration of half-maximal effect. Only part of the results is shown; the hit share may differ from the screen's.

SMILES | Tau ThT inhib | L3MBTL1 block | Tau FP inhib | Tau fluor cs | aGal spleen mod | TRb-SRC2 inh | TR SRC2 fluor cs
COc1nc(Nc2ccc(OC)c(Cl)c2)nc(OC)n1 | ? | -9% | 10% | -9% | -1% | -2% | 1%
Cc1cccc(C(=O)Nc2sc3c(c2C#N)CCCCC3)c1 | -13% | 9% | -3% | -5% | 4% | -17% | -1%
Cc1nnc(-c2ccc(Cl)cc2)[nH]c1=O | -2% | 8% | -2% | -1% | -4% | -3% | -1%
CCOc1cc(C=O)ccc1OS(=O)(=O)c1ccc(NC(C)=O)cc1 | 2% | 3% | -11% | -9% | 0% | -4% | 1%
Nc1nc(C(=O)N2CCOCC2)nn1S(=O)(=O)c1ccccc1 | -2% | -3% | -1% | 5% | -7% | -17% | 0%
CS(=O)(=O)N1CCC2(CC1)CN(Cc1ccc(C#N)cc1)C2 | . | . | . | . | -13% | . | .
CC(=O)Nc1ccc(OC(F)(F)C(F)C(F)(F)F)c(NC(C)=O)c1 (centres undefined) | -8% | . | 0% | -7% | 1% | 6% | -2%
Cc1cc(C)cc(N(C(C)C(=O)NC2CCCC2)S(C)(=O)=O)c1 (centres undefined) | -9% | . | 6% | -8% | 0% | -13% | -2%
CCN(Cc1ccccc1)C(=O)CSc1nc(C)cc(=O)[nH]1 | -12% | . | -8% | -1% | 0% | 0% | -2%
CC1(C)CO[C@H](CC(=O)O)CN1 | -10% | . | 0% | -14% | 2% | -2% | 1%
CCCCNC(=O)c1cccnc1SCC(=O)Nc1ccccc1OC | 0% | 0% | ? | -15% | 6% | -2% | 1%
CCOc1nc(C)ccc1-c1noc(-c2ccccc2OC)n1 | ? | 13% | -3% | -29% | -18% | -6% | 1%
COc1cc(N2CCCC2)c(OC)cc1/C=C(/C#N)c1cccc(Br)c1 | ? | . | 8% | ? | -4% | 3% | 11%
Cn1cccc1-c1cc(C(=O)N/N=C/C=C/c2ccccc2)[nH]n1 | -14% | ? | -4% | -18% | -8% | -1% | 0%
CC1CCN(C2CCN(S(=O)(=O)c3ccc(F)cc3)CC2)CC1 | 1% | -4% | 4% | 0% | 11% | -13% | -1%
COC(=O)[C@H](CCSC)NC(=O)Nc1ccc(C)cc1C | 5% | -5% | -5% | 5% | -1% | -10% | 0%
Cc1cccc(C)c1-n1c(C)cc(/C=C2\C(=O)NN(c3ccccc3)C2=O)c1C | ? | ? | 7% | ? | 4% | 4% | 2%
CCc1ccccc1NC(=O)CN(C)S(=O)(=O)c1ccc2c(c1)c(=O)n(C)c(=O)n2C | -4% | . | 4% | -10% | -1% | -2% | -2%
CC(C)NCCOCCOc1ccccc1F | -9% | . | 2% | 0% | 5% | -5% | 1%
O=C(O)CCN1C(=O)/C(=C/c2cn(-c3ccccc3)nc2-c2cccs2)SC1=S | 4% | 0% | -3%[2.34 µM] | -1%[2.34 µM] | -6% | -4% | 1%
O=C(CSc1nnc(-c2ccccc2)n1C1CCCCC1)N1CCCC1 | 5% | -10%[11.4 µM] | 2% | 9% | 5% | 0% | 1%
COC(=O)c1cc(NS(=O)(=O)c2ccc(N3CCOCC3)c(NC(C)=O)c2)cc(C(=O)OC)c1 | -6% | -2% | -1% | -7% | 3% | 6% | -1%
COc1ccc(-c2csc3nc(C)nc(N4CCC(C)CC4)c23)cc1OC | 5% | . | 2% | 2% | 4% | 3% | -3%
Cc1noc(C)c1COc1ccc(C(=O)OCC(=O)NCCN2C(=O)CSC2=O)cc1 | -7% | . | 2% | -7% | 0% | 1% | -5%
CC(=O)Nc1ncc(Cc2ccc(Cl)cc2Cl)s1 | 6% | 1% | 3% | 3% | 1% | 6% | -2%

2 consecutive records from above, quoted:
SMILES | Tau ThT inhib | L3MBTL1 block | Tau FP inhib | Tau fluor cs | aGal spleen mod | TRb-SRC2 inh | TR SRC2 fluor cs
COc1nc(Nc2ccc(OC)c(Cl)c2)nc(OC)n1 | ? | -9% | 10% | -9% | -1% | -2% | 1%
Cc1cccc(C(=O)Nc2sc3c(c2C#N)CCCCC3)c1 | -13% | 9% | -3% | -5% | 4% | -17% | -1%

Later entries
SMILES | Tau ThT inhib | L3MBTL1 block | Tau FP inhib | Tau fluor cs | aGal spleen mod | TRb-SRC2 inh | TR SRC2 fluor cs
O=C(CN1C(=O)C2CC=CCC2C1=O)Nc1ccc(-c2nnc3n2CCCCC3)cc1 (centres undefined) | -17% | -6% | -3% | -3% | 6% | 0% | 0%
COc1ccccc1N1CCN(CCCOc2ccc(F)cc2)CC1 | -18% | . | -3% | -13% | 4% | 2% | -4%
CCCC(=O)N1CC2(CCC)CN(C(=O)CCC)CC(CCC)(C1)C2=O | -5% | -2% | 2% | 1% | 0% | -8% | 1%
COc1ccc(S(=O)(=O)N(CC(=O)NCc2ccco2)C2CCCCC2)cc1OC | -13% | -10% | -5% | -2% | 3% | -1% | -3%
CSc1nc2ccc(NS(=O)(=O)c3ccccc3F)cc2s1 | -5% | 4% | 3% | -11% | -3% | -4% | -4%
CC(C)n1c(NCc2ccc(N(C)C)cc2)nc2ccccc21 | ? | -18% | 10% | -14% | 2% | -1% | 0%
CCO[C@H]1OC(C(=O)NCc2ccccc2)=C[C@@H](C2CC2)[C@@H]1CCCO | -8% | 3% | -1% | -16% | 2% | -10% | 0%
Cc1nnc(SCC(=O)Nc2nc(C(C)(C)C)cs2)s1 | -11% | . | 5% | -2% | 0% | 0% | -4%
O=C(C1=C[C@@H](C2CCCCC2)C[C@@H](OCCCCO)O1)N1CCN(Cc2ccc3c(c2)OCO3)CC1 | 0% | -1% | 4% | 16% | -6% | -3% | -3%
O=C(c1cccc(F)c1)N1CCC[C@@]2(CCN(Cc3nccs3)C2)C1 | . | . | . | . | 0% | . | .
CCN1CCN(C(C(=O)NC2CCCC2)c2ccc(Cl)cc2)CC1 (centres undefined) | -10% | -3% | -6% | -4% | -15% | 1% | -4%
CCn1c(-c2cccn(Cc3ccc(Cl)cc3Cl)c2=O)n[nH]c1=S | -10% | . | 0% | -10% | 0% | 0% | -1%
CC(C)CC1c2[nH]c3ccccc3c2CCN1C(=O)C1CCOCC1 (centres undefined) | 5% | -8% | -4% | 4% | -2% | 2% | -5%
NC(=O)CN1CCOCCOCCN(CC(N)=O)CCOCCOCC1 | 4% | 25% | 4% | 6% | -9% | 6% | 0%
COc1ccc(C(=O)Nc2nc3cc(OC)c(OC)cc3c(=O)[nH]2)cc1 | -14% | . | -13% | -5% | 0% | -9% | -6%
CCCCCn1c(=O)c(-c2nc3ccccc3c(=O)[nH]2)c(O)c2ccccc21 | -14% | 0% | -12% | -6% | 3% | -10% | -3%
COc1ccc(C)cc1S(=O)(=O)n1ccnc1C | -9% | 4% | -13% | -6% | 4% | 9% | -1%
Clc1ccc(CONc2ncnc3nonc23)c(Cl)c1 | ? | . | ? | ? | 4% | -1% | 0%
O=C(Oc1ccccc1)c1ccc(COC(=O)c2cnccn2)cc1 | -11% | -4%[11.4 µM] | 2% | -9% | 6% | -12% | -4%
Oc1cc2ccccc2cc1-c1nnc2n1-c1ccccc1SC2 | -3% | . | -8% | -6% | -15% | 2% | -1%
Cc1noc(C)c1CSCC(=O)OCC(=O)Nc1sccc1C#N | -6% | -2% | -2% | -5% | 1% | 1% | -2%
CCN(CC)CCNC(=O)Cn1c(C)cc2ccccc2c1=O | -9% | . | 5% | -2% | 2% | 2% | 3%
Fc1ccc(-c2csc(N3CCC(c4ccccc4)C3)n2)cc1 (centres undefined) | -14% | 42%[activator] | 9% | -21% | -1% | -18% | 2%
Cc1cc(C(=O)Nc2ccc(Cl)cc2)c(C)n1-c1ccccc1 | ? | -13% | -3% | ? | -3% | 1% | -1%
Cc1cnc(NC(=O)CSc2ccc(Cl)cc2)s1 | -9% | 0% | ? | -12% | 8% | -15% | -4%

Given as tab-separated lines: entries from further up.
SMILES	Tau ThT inhib	L3MBTL1 block	Tau FP inhib	Tau fluor cs	aGal spleen mod	TRb-SRC2 inh	TR SRC2 fluor cs
COC(=O)c1cc(NS(=O)(=O)c2ccc(N3CCOCC3)c(NC(C)=O)c2)cc(C(=O)OC)c1	-6%	-2%	-1%	-7%	3%	6%	-1%
CCN(CC)CCNC(=O)Cn1c(C)cc2ccccc2c1=O	-9%	.	5%	-2%	2%	2%	3%
CSc1nc2ccc(NS(=O)(=O)c3ccccc3F)cc2s1	-5%	4%	3%	-11%	-3%	-4%	-4%
O=C(C1=C[C@@H](C2CCCCC2)C[C@@H](OCCCCO)O1)N1CCN(Cc2ccc3c(c2)OCO3)CC1	0%	-1%	4%	16%	-6%	-3%	-3%

Five compounds drawn at random from those above, as already listed:
SMILES | Tau ThT inhib | L3MBTL1 block | Tau FP inhib | Tau fluor cs | aGal spleen mod | TRb-SRC2 inh | TR SRC2 fluor cs
Cc1nnc(SCC(=O)Nc2nc(C(C)(C)C)cs2)s1 | -11% | . | 5% | -2% | 0% | 0% | -4%
COc1ccc(C)cc1S(=O)(=O)n1ccnc1C | -9% | 4% | -13% | -6% | 4% | 9% | -1%
CSc1nc2ccc(NS(=O)(=O)c3ccccc3F)cc2s1 | -5% | 4% | 3% | -11% | -3% | -4% | -4%
Cc1cc(C(=O)Nc2ccc(Cl)cc2)c(C)n1-c1ccccc1 | ? | -13% | -3% | ? | -3% | 1% | -1%
CCN1CCN(C(C(=O)NC2CCCC2)c2ccc(Cl)cc2)CC1 (centres undefined) | -10% | -3% | -6% | -4% | -15% | 1% | -4%

(more compounds)
SMILES | Tau ThT inhib | L3MBTL1 block | Tau FP inhib | Tau fluor cs | aGal spleen mod | TRb-SRC2 inh | TR SRC2 fluor cs
CN(C)CCCNC(=S)N1CCn2c(nc3ccccc32)C1 | -1% | 6% | 1% | 1% | 2% | -3% | 2%
O=C(c1cccc(F)c1)N1CCC(N2CCCCCC2)CC1 | -14% | . | -1% | -12% | -5% | -2% | -2%
Cc1cc(=O)[nH]c(/N=C(\N)Nc2ccc(SC(F)F)cc2)n1 | -17% | ? | 4% | 4% | -4% | -1% | 1%
COc1cc(/C=N/Nc2cccc(C)c2)ccc1OC(=O)c1ccco1 | ? | 2% | ? | ? | 1% | 3% | -1%
COC(=O)CCCC(=O)OC | . | -2% | . | . | 1% | 4% | -1%
COC(=O)c1ccccc1NC(=O)Cn1cnc2c(cnn2-c2ccccc2)c1=O | -9% | 2% | -2% | -8% | 10% | -5% | -2%
CCCCn1c(Cl)nc2c1c(=O)n(C)c(=O)n2C | -2% | 1% | 0% | 2% | -5% | 3% | 0%
Cc1cc(C(=O)COC(=O)c2ccc[nH]c2=O)c(C)n1-c1ccccc1 | 6% | -10% | -2% | 11% | 1% | -7% | 0%
